Mtb H37Rv – Mycobacterium tuberculosis H37Rv growth inhibition, cell based, confirmatory dose response (AID 1949); actives 1.6% (n = 100,000); most inactive calls were filed without a number and no value below 0 was filed; inhibition, % at 10 µg/mL; hits with a dose series show IC50 in µg/mL;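 active = confirmed in a dose series; inconclusive = about 50% or more but not retested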;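 also: bacteria grown 7 days with compound before Alamar blue readout; 0% = untreated bacteria and 100% = reference antibiotic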
* hit, by the source's call; i = inactive; ? = inconclusive. Only part of the results is shown; the hit share may differ from the screen's.

SMILES	Mtb H37Rv
Cc1nn(Cc2ccc(Br)cc2)c(C)c1NC(=O)c1nn(C)cc1Cl	i
Cc1cc(OCC(=O)NC2CC2)c2c3c(c(=O)oc2c1)CCC3	i
CCOC(=O)c1cnc2ccc(C)cc2c1NCCCO	i
OCC1CCCN(C(=S)Nc2ccc(Oc3ccccc3)cc2)C1 (stereo not drawn)	6%
COc1cccc(C(=O)Nc2cccc(F)c2)c1OC	i
CC(C)(CNC(=O)c1cccc(F)c1)CNC(=O)c1cccc(F)c1	i
NS(=O)(=O)c1ccc(NC(=S)N2CCN(Cc3ccc(Cl)c(Cl)c3)CC2)cc1	1%
CCOC(=O)c1c(N)n(CC2CCCCC2)c2nc3ccccc3nc12	i
Cc1sc(NC(=O)COc2ccc3ccccc3c2Br)c(C(N)=O)c1C	i
O=C(Oc1ccc(C(=S)N2CCOCC2)cc1)c1ccc(F)cc1	17%

Molecules above that have bromine, in the order listed:
SMILES	Mtb H37Rv
Cc1nn(Cc2ccc(Br)cc2)c(C)c1NC(=O)c1nn(C)cc1Cl	i
Cc1sc(NC(=O)COc2ccc3ccccc3c2Br)c(C(N)=O)c1C	i

Remaining list, next part
SMILES	Mtb H37Rv
COc1ccc(/C(N)=N/OC(=O)COc2ccccc2OC)cc1OC	i
Cc1cccc(C(=O)NC2CCCCCC2)c1[N+](=O)[O-]	7%
c1ccc2nc(-c3nc4ccccc4o3)ccc2c1	i
COc1cc(/C=N/NC(=O)c2n[nH]c3c2CCC3)ccc1O	i
O=C(COc1ccc(S(=O)(=O)NC2CCCCC2)cc1)NCc1ccc(Cl)cc1	i
COc1ccc(OC)c(C(=O)CSc2nnc(Cc3ccc(Cl)cc3)n2C)c1	i
COc1ccccc1NC(=O)c1c(NCc2ccc(C)o2)sc2c1CCC2	i
O=C(Cn1cnc2ccccc2c1=O)Nc1ccc(F)c(Cl)c1	i
COc1ccc(-c2c(-c3ccc(OCc4ccccc4)c(C)c3O)n[nH]c2C)cc1	3%
COc1cc(NC(=O)Nc2cccc([N+](=O)[O-])c2)cc(OC)c1	i
O=C(O)C(Cc1ccccc1)N1C(=O)C2CCCCC2C1=O (stereo not drawn)	i
CC1(C)CC(=O)c2cnc(NC(=O)CSc3nc4ccccc4o3)nc2C1	i
Cc1ccc(S(=O)(=O)Nc2ccc(NC(=O)COc3ccc(Cl)cc3Cl)cc2)cc1	i
Cn1c(CNC(=O)c2ccc(Cl)c(Cl)c2)nnc1SCC(=O)Nc1c(Cl)cc(Cl)cc1Cl	i
O=C(O)C1CC(c2cccc(Br)c2)=NO1 (stereo not drawn)	i
O=C(Nc1cnn(Cc2ccc(Cl)cc2)c1)C1CCCC1	i
Cc1ccc(S(=O)(=O)N2CCCC(C(=O)Nc3ccc(C)c(C)c3)C2)cc1 (stereo not drawn)	i
Cc1cc2ncn(CC(C)C)c2cc1C	49%
CC1=C(C(=O)Nc2ccccc2)C(c2ccco2)NC(=S)N1 (stereo not drawn)	i
CCC(=O)NNc1ccc(Br)cc1	22%

The list goes on (2 carried over from the part before).
SMILES	Mtb H37Rv
CC1=C(C(=O)Nc2ccccc2)C(c2ccco2)NC(=S)N1 (stereo not drawn)	i
CCC(=O)NNc1ccc(Br)cc1	22%
CCc1ccccc1NC(=O)c1ccc(F)cc1	i
Cc1ccc(-n2c(SCC(=O)OC(C)C)nnc2-c2ccncc2)cc1	?
COC(=O)c1ccccc1NC(=O)CC1Nc2cc(C)c(C)cc2NC1=O (stereo not drawn)	i
Cc1ccc(S(=O)(=O)Nc2cc3c(c4ccccc24)OC2(C3)N(C)c3ccccc3C2(C)C)c(C)c1 (stereo not drawn)	i
COc1cc(Cl)c(S(=O)(=O)N2CCN(C/C=C/c3ccccc3)CC2)cc1Cl	2%
Cc1ccc(NC(=O)C23CC4(C)CC(C)(CC(C)(C4)C2)C3)cc1	i
O=C(CSc1nnc(-c2ccccc2F)n1-c1ccccc1)Nc1ccc2cn[nH]c2c1	i
CSc1nc2c(c(=O)[nH]1)C(c1ccc(C#N)cc1)C1=C(CCCC1=O)N2 (stereo not drawn)	i
CCOc1ccc(NC(=O)C2CC(=O)N=C(N)S2)cc1 (stereo not drawn)	2%
CCCC(C)NC(=O)c1ccc(F)cc1 (stereo not drawn)	i
COc1ccc(-c2cc(C(F)F)n3ncc(C(=O)NCc4ccccc4F)c3n2)cc1	i
CCN(CC)c1ccc(CNCc2ccncc2)cc1	i
CC(=O)CCc1ccc(Oc2ccc(C(F)(F)F)cn2)cc1	9%
CCN1CCN(C(=O)c2ccccc2N(Cc2ccccc2)S(C)(=O)=O)CC1	i
CC1CCCCN1c1nc(-c2cccc([N+](=O)[O-])c2)nc2ccccc12 (stereo not drawn)	7%
N#CC1=c2/c(=C/c3ccsc3)c(N)c(C#N)n2C(=O)C(c2ccsc2)S1 (stereo not drawn)	i
CCOC(=O)c1cccc(NC(=O)C(CC)CC)c1	1%
CCCOC(=O)c1ccc(NC(=O)c2cccc(OCc3ccccc3)c2)cc1	6%
COc1ccc(Cl)cc1N(CC(=O)Nc1ccc(F)c(Cl)c1)S(C)(=O)=O	i
Cc1ccc(SC2CC(=O)N(c3ccc4c(c3)OCCO4)C2=O)cc1 (stereo not drawn)	i
COc1ccc2c(c1)C(=O)CCC2c1ccccc1 (stereo not drawn)	4%
Cc1nc(-c2cccc(NS(C)(=O)=O)c2)cs1	i
COC(=O)c1cccc(NC(=S)Nc2cccc(F)c2)c1	i
CC(=O)Oc1ccc(C(=O)N2C(=O)C(=O)c3cc(C)ccc32)cc1	i
Cc1ccc(S(=O)(=O)Cc2ccc(C(=O)OCc3ccccc3)cc2)cc1	1%
O=C(O)CCC(=O)Nc1ccc(-c2nc3ccc(C(=O)c4ccccc4)cc3[nH]2)cc1	i
COC(=O)Nc1sc2c(c1C(N)=O)CCCCCC2	i
CCC(C)c1ccc(NC(=O)CC(C)=O)cc1 (stereo not drawn)	4%
N#C/C(=C/c1ccccc1[N+](=O)[O-])c1ccc(F)cc1	3%
COc1cccc(C(=O)Oc2cc(=O)oc3ccccc23)c1	i
COc1ccc(C(=O)Nc2ccccc2C(N)=O)cc1Cl	i
COc1ccc(/C=C/C(=O)N2CCc3ccccc3C2)cc1	4%
CN(C)c1ccc(C2NC(=S)NC3=C2CCc2ccccc23)cc1 (stereo not drawn)	10%
C=CCNC(=O)c1ccccc1NC(=O)c1ccccc1I	2%
Cc1oc2c(C)c3oc(=O)c(C)c(C)c3cc2c1C	i
O=C(Oc1ccccc1NC1=NS(=O)(=O)c2ccccc21)c1ccccc1Br	i
COC(=O)c1cc(OC)c(OC)cc1NC(=O)c1ccccc1F	i
O=c1c2ccccc2cnn1-c1ccc(Cl)c(Cl)c1	3%
O=C(COc1ccc(S(=O)(=O)NC2CCCC2)cc1)N1CCCCCC1	i
COc1cc(C(=O)Nc2ccc3oc(-c4ccc(F)cc4Cl)nc3c2)cc(OC)c1OC	5%
C=CCNC(=O)C(C)Oc1ccccc1 (stereo not drawn)	i
COc1ccc(CSc2nnc3n(CCc4ccccc4)c(=O)c4c5c(sc4n23)COC(C)(C)C5)cc1	i
COc1cc(OC)c(NC(=O)c2csc3ccccc23)cc1Cl	i
CS(=O)(=O)N(CC(=O)NC1CC1)c1ccc(I)cc1	i
COc1ccc(C(=O)N2CCN(S(C)(=O)=O)CC2)c(OC)c1	i
O=C(CCCNC(=O)OCc1ccccc1)Oc1ccc2c(C(F)(F)F)cc(=O)oc2c1	i
O=C(O)C1C2C=CC(O2)C1C(=O)Nc1cccnc1 (stereo not drawn)	i
CCCOc1ccc(C2C(C(=O)c3ccc(C)o3)=C(O)C(=O)N2CCCN2CCOCC2)cc1 (stereo not drawn)	i
O=C(c1cc(S(=O)(=O)N2CCCCC2)c(Cl)cc1N1CCOCC1)N1CCOCC1	i
CCn1c2ccccc2n2c(SCC(=O)Nc3ccc(C)cc3)nnc12	i
Next section.
SMILES	Mtb H37Rv
Cc1cc(C)nc(Nc2nc3ccccc3c(=O)[nH]2)n1	i
COc1ccc2c(c1)c(CC(=O)Nc1ccc(Cl)cn1)c(C)n2C(=O)c1ccc(Cl)cc1	i
CC(C)c1ccccc1NC(=O)c1c(F)c(F)c(F)c(F)c1F	i
Cc1ccc2ccc(C(Nc3ccccn3)c3ccccc3Cl)c(O)c2n1 (stereo not drawn)	i
COc1ccc(-c2csc(NC(=O)c3ccccc3)n2)cc1C	7%
CCCNCc1cc(OC)c(OCC(=O)Nc2ccccc2)cc1Br	i
Cc1ccc(S(=O)(=O)N(C)CCCC(=O)Nc2nccs2)cc1	i
COc1ccc(NC(=O)c2cn(-c3ccccc3)nc2-c2ccncc2)cc1	i
O=C(c1ccc(NS(=O)(=O)c2ccccc2)cc1)N1CCN(Cc2ccc3c(c2)OCO3)CC1	2%
COc1cccc(C(=O)N2CCN(C3CCC(c4ccccc4)CC3)CC2)c1 (stereo not drawn)	6%
CCOC(=O)C1CCN(CCC(=O)Nc2ccc(Br)cc2)CC1	i
CCOc1ccc(N2CC(C(=O)Nc3cccc(OC)c3)CC2=O)cc1 (stereo not drawn)	i
CCOc1ccc(N(C(C)C(=O)Nc2ccccc2C(=O)NCc2ccco2)S(C)(=O)=O)cc1 (stereo not drawn)	i
COc1ccc(OC(=O)c2ccccc2[N+](=O)[O-])c(C(C)=O)c1	6%
Cc1ccc(Cl)cc1N1CCN(S(=O)(=O)c2cccs2)CC1	i
Cc1ccc(S(=O)(=O)N(CC(=O)N2CCCC2)Cc2ccccc2F)cc1	1%
CN1C2CCC1CC(OC(=O)c1ccco1)C2 (stereo not drawn)	i
O=C(CN(c1ccc(F)cc1)S(=O)(=O)c1ccccc1)Nc1cccc(F)c1	i
COc1cccc(NC(=O)CN(c2cccc(C(C)=O)c2)S(C)(=O)=O)c1	i
O=C(O)C(Cc1ccccc1)N1C(=O)/C(=C/c2ccccc2)SC1=S (stereo not drawn)	i
COc1cc(OC)c(NC(=O)CCC2CCCC2)cc1Cl	i
CCOC(=O)c1ccc(CNC(=O)CSc2nc3sc(C(=O)O)c(C)c3c(=O)[nH]2)cc1	i
COc1ccc(CNC(=O)CSc2nnnn2C)cc1	i
COC(=O)c1sc(NC(=O)c2ccc3c(c2)OCO3)c(C(=O)OC)c1C	i
COC(=O)c1cn(C(=O)COc2ccc(Cl)cc2)c2ccccc12	i
CCc1ccc(NC(=O)C(C)Sc2ccc(Cl)cc2)cc1 (stereo not drawn)	i
OCc1ccccc1CN1CCCCC1	i
Cc1c(Nc2nc(-c3ccccc3)c(NC(=O)c3ccccc3)s2)c(=O)n(-c2ccccc2)n1C	i
NS(=O)(=O)c1ccc(NS(=O)(=O)c2ccc(NC(=O)Nc3ccc(Cl)cc3)cc2)cc1	20%
Nc1cnc2c3c(sc2n1)CCCC3	i
COc1ccccc1NC(=O)CSc1n[nH]c(-c2ccc(Cl)cc2Cl)n1	i
O=C(CSc1nccc(=O)[nH]1)c1cccs1	i
CCCOc1ccc(C2C(C(=O)c3ccc(C)o3)=C(O)C(=O)N2CCCN2CCOCC2)cc1OC (stereo not drawn)	i
C=CCn1c(CCSCCCC)n[nH]c1=S	i
CCN1C(=O)c2cccc3c(NC(=O)c4ccc(S(=O)(=O)N5CCOCC5)cc4)ccc1c23	1%
NC(=O)c1c(NC(=O)c2ccc(COc3ccccc3Cl)cc2)sc2c1CCCC2	33%
O=C1CC(N2CCN(C3CCCCC3)CC2)C(=O)N1c1ccc(Cl)cc1 (stereo not drawn)	1%
COc1cccc(OC)c1OCCN1CCNCC1	i
COc1ccccc1OCC(=O)Nc1ncc(Cc2cccc(C(F)(F)F)c2)s1	i
Cc1cc(Cl)ccc1NC(=S)N1CCN(C(=O)C2CCCO2)CC1 (stereo not drawn)	i
COc1ccc2nc(NC(=O)c3ccc(S(=O)(=O)N4CCCC4)cc3)sc2c1	5%
O=C(Cc1ccc(F)cc1)Oc1ccc2ccccc2c1	i
O=C(COC(=O)c1ccncc1)c1ccc(OC(=O)c2ccccc2)cc1	i
COc1ccc(NC(=O)CC2C(=O)N(C)C(=S)N2Cc2ccc(OC)c(OC)c2)cc1 (stereo not drawn)	2%
CC(=O)COc1cccc2ccc(/C=C/c3ccc(Br)s3)nc12	i
Cc1cc(C)nc(NS(=O)(=O)c2ccc(NC(=O)C(C)Oc3cccc(C)c3C)cc2)n1 (stereo not drawn)	i
COc1ccc(Cc2nnc(SCC(=O)NC(C)c3ccccc3)n2C)cc1 (stereo not drawn)	i
COCCCNC(=O)/C(=C/c1ccco1)NC(=O)c1ccc(OC)cc1	i
Cc1cc(C(C)(C)C)cc(C)c1CSc1nnc(-c2ccc(N)cc2)n1C	44%
COc1ccc(-c2c(C)n([O-])c3c([n+]2=O)CCC3)cc1OC	i
CS(=O)(=O)N(CC(=O)Nc1ccccc1C(=O)NCc1ccccc1)c1ccccc1F	i
CSc1cccc(NC(=O)CSc2nc3ccccc3s2)c1	i

Molecules shown so far containing a nitro group on carbon, in the order listed:
SMILES	Mtb H37Rv
Cc1cccc(C(=O)NC2CCCCCC2)c1[N+](=O)[O-]	7%
COc1cc(NC(=O)Nc2cccc([N+](=O)[O-])c2)cc(OC)c1	i
CC1CCCCN1c1nc(-c2cccc([N+](=O)[O-])c2)nc2ccccc12 (stereo not drawn)	7%
N#C/C(=C/c1ccccc1[N+](=O)[O-])c1ccc(F)cc1	3%
COc1ccc(OC(=O)c2ccccc2[N+](=O)[O-])c(C(C)=O)c1	6%

Four entries drawn at random from those above:
SMILES	Mtb H37Rv
Cc1cc(C)nc(NS(=O)(=O)c2ccc(NC(=O)C(C)Oc3cccc(C)c3C)cc2)n1 (stereo not drawn)	i
COc1ccc(-c2c(C)n([O-])c3c([n+]2=O)CCC3)cc1OC	i
COc1ccc2nc(NC(=O)c3ccc(S(=O)(=O)N4CCCC4)cc3)sc2c1	5%
COCCCNC(=O)/C(=C/c1ccco1)NC(=O)c1ccc(OC)cc1	i

Screening results deposited in PubChem BioAssay by Southern Research Institute.
